Compound activity (PubChem BioAssay)
UUG fidelity – modulators of yeast start codon fidelity, primary screen, whole organism, S. cerevisiae, single point, plate reader | activity score, % at 18.7 µM | 350,000 compounds, 0.13% hits | AID 602363, 2012 | S. cerevisiae UUG-firefly luciferase reporter, luminescence/redox ratio;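 active means replicate mean at a twofold rise or more, about +100% in these data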;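 further: firefly luciferase made from a UUG start codon reports start codon fidelity; reporter light over untreated wells divided by growth signal over untreated wells; some hits fall short of that in this replicate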
PABP FP inh – PABP poly(A) RNA binding inhibitors, primary screen, biochemical, fluorescence polarization, uHTS. inhibition, % at 35 µM. 290,000 compounds, 1% hits. Polyadenylate-binding protein 1 (Homo sapiens), P11940. AID 2014, 2009;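 active means 50% or more with normal probe brightness, or confirmed in later tests; inconclusive means above 50% with abnormal brightness, or retests that disagree; inactive means below 50% or failed in later tests; about a fifth of its hits are not listed in these tables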;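 further: calls also rest on retests at 20 µM and on dose response follow-up; controls were probe without protein and protein plus probe with vehicle; some compounds called inactive have numbers as strong as hits; many hits fall short of the cut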
Target sequence (P11940 whole entry, looked up): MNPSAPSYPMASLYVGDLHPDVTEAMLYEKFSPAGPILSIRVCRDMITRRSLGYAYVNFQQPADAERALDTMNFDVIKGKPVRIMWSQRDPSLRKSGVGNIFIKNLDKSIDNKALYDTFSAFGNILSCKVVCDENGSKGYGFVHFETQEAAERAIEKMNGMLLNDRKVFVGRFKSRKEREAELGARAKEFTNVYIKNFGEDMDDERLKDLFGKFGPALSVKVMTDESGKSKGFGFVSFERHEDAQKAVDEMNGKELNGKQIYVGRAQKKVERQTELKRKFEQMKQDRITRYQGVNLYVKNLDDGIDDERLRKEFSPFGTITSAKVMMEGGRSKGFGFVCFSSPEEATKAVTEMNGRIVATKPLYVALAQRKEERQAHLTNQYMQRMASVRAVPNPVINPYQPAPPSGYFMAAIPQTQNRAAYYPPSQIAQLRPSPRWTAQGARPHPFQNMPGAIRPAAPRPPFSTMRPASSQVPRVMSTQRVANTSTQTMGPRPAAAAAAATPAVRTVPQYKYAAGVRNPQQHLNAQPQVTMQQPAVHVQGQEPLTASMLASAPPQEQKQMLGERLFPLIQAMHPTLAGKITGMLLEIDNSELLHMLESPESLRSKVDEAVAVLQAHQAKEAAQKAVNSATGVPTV
Env fusion inh – inhibitors of HIV-1 Env-driven cell-cell fusion, primary screen, HeLa-JRFL effector, CEM21 target cells, luciferase. inhibition, % at 12.3 µM. 360,000 compounds, 1.1% hits;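 active means mean replicate inhibition score of at least 50 and every replicate individually at or above 50; inconclusive means only one of the two criteria met; inactive means mean below 50 and not all replicates reaching 50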;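 further: 0% = plate neutral controls and 100% = maraviroc near 300 nM; one replicate is shown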
Rce1 inh – yeast Rce1p protease inhibitors, primary screen, biochemical, fluorescence, cell-free homogeneous. CAAX prenyl protease 2 (Saccharomyces cerevisiae (strain ATCC 204508 / S288c)), Q03530. yeast membranes, quenched prenylated peptide cleavage fluorescence. calls only. 290,000 compounds, 0.27% hits. AID 2563, 2010;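 active means fall in fluorescence gain of 50% or more versus controls, with final raw signal at or below 3038400; inconclusive means same 50% fall but final raw signal above 3038400; inactive means fall in fluorescence gain under 50%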;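 further: plate controls were neutral control wells for no effect and wells lacking membranes for full effect; tested at 10 µM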
Target sequence (Q03530 whole entry, looked up): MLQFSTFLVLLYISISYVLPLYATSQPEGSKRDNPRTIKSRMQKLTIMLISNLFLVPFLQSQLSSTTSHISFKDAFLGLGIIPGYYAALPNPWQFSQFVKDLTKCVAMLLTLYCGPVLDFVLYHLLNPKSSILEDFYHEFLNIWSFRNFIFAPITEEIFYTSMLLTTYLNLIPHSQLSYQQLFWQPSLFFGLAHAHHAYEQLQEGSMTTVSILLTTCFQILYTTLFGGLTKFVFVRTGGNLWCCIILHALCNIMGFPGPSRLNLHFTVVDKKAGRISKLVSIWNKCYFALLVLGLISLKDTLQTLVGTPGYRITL
eIF4H FP inh – human eIF4H binding inhibitors, primary screen, translation initiation inhibitor project, biochemical, uHTS, fluorescence polarization. Eukaryotic translation initiation factor 4H (Homo sapiens), Q15056. eIF4H fluorescence polarization binding assay. inhibition, % at 35 µM. 290,000 compounds, 0.94% hits. AID 2012, 2009;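 active means 50% or more with normal probe brightness, or confirmed in later tests; inconclusive means above 50% with abnormal brightness, or retests that disagree; inactive means below 50% or failed in later tests; about a fifth of its hits are not listed in these tables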;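 further: calls also rest on retests at 20 µM and on dose response follow-up; 0% = protein and probe with vehicle and 100% = probe without protein; strong numbers were not always called active; many hits fall short of the cut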
CSC inhib – cancer stem cell viability inhibitors, primary screen, luminescence; 300,000 compounds, 1.1% hits; cancer stem cell-like cells viability; inhibition, % at 7.5 µM;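 active means mean at 75% or more and at least half the replicates too; inconclusive means mean and replicates disagree; tested in HMLE shEcad cells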;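 further: 0% = median of negative and 100% = median of positive control wells; the first replicate is given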
MT1-MMP act inh – blockers of MT1-MMP proenzyme processing, primary screen, HT1080 RFP-PRO-GFP cells, GFP/RFP fluorescence | 360,000 compounds, 0.061% hits | AID 651647, 2012 | Matrix metalloproteinase-14 (Homo sapiens), P50281 | GFP/RFP ratio fluorescence, overnight; percent of plate control window, DMSO zero | GFP/RFP ratio change, % at 20 µM;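 active means GFP/RFP ratio change of at least 30% with cell ATP level not reduced by more than half and red fluorescence within 50% of control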; further: strong numbers were not always called active
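system = RFP-PRO-GFP reporter HT1080 cells | dosing = 20 µM single dose, 1% DMSO | timing = overnight cell settling, then overnight compound exposure, 37 °C, 5% CO2 | read-out basis = GFP/RFP fluorescence ratio | controls = DMSO and RFP-L50D-GFP cell wells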
MT1-MMP act inh RFP – second read-out of MT1-MMP act inh, no call of its own (marks repeat the call); RFP signal change, %; measured here: RFP expression control read;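 0 = vehicle wells; hits needed this value within 50% of zero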
The depositor's hits bear a star; i = inactive; ? = inconclusive; . = not tested or not shown; + = active, no number.

Structure	UUG fidelity	PABP FP inh	Env fusion inh	Rce1 inh	eIF4H FP inh	CSC inhib	MT1-MMP act inh	MT1-MMP act inh RFP
CC(=O)N(C)c1ccc(OCC(O)COc2ccc(N(C)C(C)=O)cc2)cc1	1	-5	.	i	-9	-4	0	4
O=C([O-])c1cc(-c2ccccc2)cc(-c2ccccc2)[n+]1Cc1ccccc1	.	.	10	i	.	0	.	.
O=C(Cn1c(=O)sc2ccccc21)Nc1ccc(O)cc1	-18	28	-4	i	6	.	6	6
COc1ccc(C(C)=O)cc1Cn1cnc2c(cnn2C)c1=O	-19	-4	9	i	0	0	0	2
Cn1c(=O)c2cc(S(=O)(=O)NC(C(=O)Nc3cccnc3)c3ccccc3)ccc2n(C)c1=O (stereo not given)	-15	-2	-11	.	0	4	-1	4
CC(C)CSc1oc(-c2ccco2)nc1S(=O)(=O)c1ccccc1	.	-1	-4	i	3	5	-3	-7
CC(C)n1c(CN2CCN(Cc3ccccc3)CC2)nc2ccccc21	-11	-3	7	i	-9	22	-2	-1
N/C(=N\OC(=O)c1ccccc1F)c1cccc([N+](=O)[O-])c1	-17	6	-73	i	-14	17	1	0
Cc1cccc(NC(=O)C2CCCN(S(=O)(=O)c3cccc4nsnc34)C2)n1 (stereo not given)	0	6	.	i	5	-4	3	-9
CC1CCN(C(=O)Cn2c(=O)oc3ccccc32)CC1	-6	0	.	i	0	1	4	1

Next part; the last 4 above are carried over.
Structure	UUG fidelity	PABP FP inh	Env fusion inh	Rce1 inh	eIF4H FP inh	CSC inhib	MT1-MMP act inh	MT1-MMP act inh RFP
CC(C)n1c(CN2CCN(Cc3ccccc3)CC2)nc2ccccc21	-11	-3	7	i	-9	22	-2	-1
N/C(=N\OC(=O)c1ccccc1F)c1cccc([N+](=O)[O-])c1	-17	6	-73	i	-14	17	1	0
Cc1cccc(NC(=O)C2CCCN(S(=O)(=O)c3cccc4nsnc34)C2)n1 (stereo not given)	0	6	.	i	5	-4	3	-9
CC1CCN(C(=O)Cn2c(=O)oc3ccccc32)CC1	-6	0	.	i	0	1	4	1
O=C(Nc1ccccc1)c1cc(C2COCCN2C(=O)c2ccccn2)on1 (stereo not given)	2	.	-14	.	.	.	-5	2
COc1ccc(C(O)c2ncc(-c3ccc(Cl)cc3)[nH]2)cc1 (stereo not given)	-20	.	27	.	.	.	3	-3
Cc1ccc(C(NC(=O)N2CCCC2)C(Cl)(Cl)Cl)cc1F (stereo not given)	.	1	-42	i	2	15	-7	-10
O=C1c2ccccc2NC2(CCCCC2)N1N=C1CCCCC1	3	-7	26	i	14	-2	1	-5
COc1cc(-c2cc3nc(NCc4cccc(Cl)c4)ccn3n2)cc(OC)c1OC	2	.	-6	.	.	.	18	-11
CCNC(=O)CSc1nc2cc([N+](=O)[O-])ccc2n1-c1cccc(C(F)(F)F)c1	-15	3	.	i	-3	.	-3	-1
Cc1ccc(-c2ccc(CCC(=O)O)n2Cc2ccco2)cc1	-16	24	5	i	29	-8	-7	3
COc1ccc(/C=C(/C#N)C(=O)NC2CCCCC2)cc1Br	-22	-12	-40	i	-3	7	-1	-5
CN(C)C(=O)CSc1cnc2ccccc2n1	.	-6	17	i	-6	-18	6	2
O=C(O)c1ccccc1C(=O)NCCCCCCNC(=O)c1ccccc1C(=O)O	4	-3	4	i	-1	.	-2	0
CCN(C(=O)c1ccc(C)c(Br)c1)c1ccccc1	.	-16	19	.	-4	-3	-5	-3
O=C(c1noc2c1CCCC2)N1CCc2c([nH]c3ccccc23)C1c1ccccn1 (stereo not given)	.	5	-16	i	0	4	-2	-4
CC(=O)Nc1nc2c(s1)C(=O)NCC(C)(C)C2	-12	-7	3	i	-12	-7	-6	-6
Cc1cnc(C(=O)OC(C)C(=O)Nc2ccc3c(c2)OCCO3)cn1 (stereo not given)	-12	-8	4	i	-1	13	-1	6
CCN(CC)C1CCN(C(=O)c2cc(COc3ccccc3SC)on2)C1 (stereo not given)	-5	-10	-9	i	-13	22	1	3
O=C(C1CCN(c2nnc(N3CCCC3=O)s2)CC1)N1CCN(c2cccc(C(F)(F)F)c2)CC1	-9	-7	-3	i	-10	18	-3	-22
N#C/C(=C\c1cccn1-c1ccccc1)C(=O)NC1CCCCC1	.	19	?	i	3	67	-12	-15
CCOc1ccc(N=c2oc3cc(O)ccc3cc2C(=O)NCC2CCCO2)cc1 (stereo not given)	-22	7	.	i	2	-20	3	1
COc1ccc(N2CCN(CCNC(=O)c3nnc(Cc4c(F)cccc4Cl)o3)CC2)cc1	-21	-7	9	i	1	-17	-2	-2
N#C/C(C(=O)N1CCCCC1)=C1/N=C(NC(=O)c2ccc(F)cc2)c2ccccc21	-12	11	-1	i	-4	-5	-1	5

(cont.)
Below each SMILES: UUG fidelity | PABP FP inh | Env fusion inh | Rce1 inh | eIF4H FP inh | CSC inhib | MT1-MMP act inh | MT1-MMP act inh RFP
- Cc1ccccc1-n1ncc2c1CC(C)(C)CC2NC(=O)CSc1ccncc1 (stereo not given)
 : -11 | -3 | 18 | i | -8 | 6 | 2 | 4
- NC(=S)Nc1cccc2cnccc12
 : . | -8 | . | i | 2 | -4 | 3 | 4
- Cc1ccc(-n2c(N)c(C(=O)N3CCN(C)CC3)sc2=S)cc1
 : -3 | 2 | -20 | i | 11 | -9 | 1 | 2
- Nc1nc(SCc2ccc(Br)cc2)[nH]c(=O)c1-c1ccccc1
 : -5 | 8 | -10 | i | -6 | -8 | -2 | -5
- COC(=O)C1(C)Cc2cc(OC(C)=O)c(OC(C)=O)cc2N1 (stereo not given)
 : . | 15 | . | i | 13 | -15 | . | .
- COc1ccc(N2CCN(C(=O)COC(=O)c3ccc(-n4nc(C)cc4C)cc3)CC2)cc1
 : -4 | . | -6 | . | . | . | 0 | -1
- Cc1nn(Cc2ccc(F)cc2)c(C)c1NC(=O)c1noc2c1CCc1ccccc1-2
 : -27 | -5 | 57* | i | -10 | 14 | -1 | -14
- Cc1cc(=O)[nH]c(N/N=C/c2ccc(C)o2)n1
 : . | -3 | . | i | 6 | 9 | -2 | 2
- CCc1ccc(Nc2nnc(SCC(=O)NCCN3C(=O)CSC3=O)s2)cc1
 : . | 9 | -29 | i | 1 | -5 | -1 | 0
- O=C(NCC1CC1)C1(C(F)(F)F)CC(CCc2ccccc2)CCCO1 (stereo not given)
 : 0 | . | 22 | i | . | 14 | -1 | -7
- COc1ccc(/C=C2\C(=O)ON=C2c2cccc([N+](=O)[O-])c2)cc1
 : . | 23 | 11 | i | 13 | -6 | . | .
- O=C(Nc1ccccc1)c1cc2ccccc2[nH]1
 : -2 | 11 | . | i | 5 | 2 | -2 | 0
- COCCn1nnnc1CN(CCc1ccccc1)Cc1cc2cc(OC)ccc2[nH]c1=O
 : . | . | 77* | i | . | 10 | -3 | 2
- Cc1ccc(NC(=S)NNC(=O)c2cccc([N+](=O)[O-])c2)cc1Cl
 : . | -1 | -49 | i | 10 | 22 | 0 | -3
- CC(C)C(=O)NCCc1nc(-c2ccccc2Cl)no1
 : -18 | . | -26 | i | . | 4 | 8 | 3
- O=C(COc1ccc([N+](=O)[O-])cc1)NNC(=O)Nc1ccccc1F
 : -18 | -4 | 2 | i | 4 | 0 | 1 | 0
- COc1ccc(CCC(=O)Nc2ccc(Br)cn2)cc1
 : -9 | -6 | -75 | i | -1 | 22 | 3 | 3
- COc1ccc(OC)c(NC(=O)c2cc3oc4ccccc4c3cc2O)c1
 : -2 | -2 | -17 | + | -14 | 6 | 1 | -2
- Cc1ccc(C(=O)CCC2CCCCC2=O)cc1 (stereo not given)
 : -10 | -7 | -100 | i | -3 | -11 | -2 | 0
- CC(=O)Nc1nnc([N+](=O)[O-])s1
 : 6 | . | -2 | . | . | . | -1 | -3
- Cc1c(NC(=O)CN2CCCC(C)C2)ccc2nsnc12 (stereo not given)
 : -6 | 0 | -25 | i | -5 | -5 | 1 | 1
- COc1ccc(NC(=O)CN2C(=O)S/C(=C/c3cccn3-c3ccc(C(=O)O)cc3)C2=O)cc1
 : -12 | 80* | -5 | i | 87* | -5 | 0 | 3
- COc1ccc(O)c(/C=N/N2CCCCC2)c1
 : -10 | -10 | -66 | i | 0 | 0 | -2 | -3
- CC(C)C(c1nnnn1C1CCCCC1)N1CCN(C(=O)c2ccco2)CC1 (stereo not given)
 : 15 | 6 | -9 | i | -4 | 0 | -6 | -1
- COc1ccc(-c2nc(N)n(S(=O)(=O)c3ccc(C)cc3)n2)cc1
 : . | 0 | -8 | i | 8 | -12 | -5 | -8
- O=C1CN(C(=O)CSc2ccccn2)c2ccccc2N1
 : -10 | . | -1 | . | . | -12 | -5 | 0
- Cn1cc(CNCc2ccccc2OCC(O)CN2CCc3ccccc3C2)cn1 (stereo not given)
 : . | 22 | 10 | i | 3 | -4 | 5 | 5
- CC1=C(C(=O)NCc2ccc(Cl)cc2)C2(CCC(C)CC2)OC1=O (stereo not given)
 : 0 | -6 | 17 | i | 8 | 0 | 2 | -4
- Cc1cc(=O)oc2c3c(cc(OCC(=O)NCCN4CCOCC4)c12)OC(C)(C)CC3
 : -7 | -9 | . | . | -13 | 11 | -2 | 2
- COc1ccc([N+](=O)[O-])cc1NC(=O)Cc1ccccc1Cl
 : . | 5 | 18 | i | -2 | 15 | -3 | -3
